Compound activity: PubChem BioAssay, several laboratories
Rce1 inhib: yeast Rce1p protease inhibitors, primary screen, biochemical, fluorescence, cell-free homogeneous; CAAX prenyl protease 2 (Saccharomyces cerevisiae (strain ATCC 204508 / S288c)), Q03530; yeast membranes, quenched prenylated peptide cleavage fluorescence; calls only; 0.27% of 290,000 active; AID 2563, 2010;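 active means fall in fluorescence gain of 50% or more versus controls, with final raw signal at or below 3038400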;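 further: plate controls were neutral control wells for no effect and wells lacking membranes for full effect; tested at 10 µM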
Target sequence (Q03530 whole entry, looked up): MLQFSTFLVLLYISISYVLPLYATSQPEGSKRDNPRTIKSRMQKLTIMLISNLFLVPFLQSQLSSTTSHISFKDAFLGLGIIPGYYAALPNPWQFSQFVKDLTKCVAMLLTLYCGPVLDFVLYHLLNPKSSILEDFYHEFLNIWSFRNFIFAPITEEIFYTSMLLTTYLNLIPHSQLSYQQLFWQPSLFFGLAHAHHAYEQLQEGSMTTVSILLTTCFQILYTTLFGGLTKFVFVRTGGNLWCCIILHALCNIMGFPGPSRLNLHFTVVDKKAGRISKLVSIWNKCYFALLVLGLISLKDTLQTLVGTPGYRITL
HIV Env fusion: inhibitors of HIV-1 Env-driven cell-cell fusion, primary screen, HeLa-JRFL effector, CEM21 target cells, luciferase | inhibition, % at 12.3 µM | 1.1% of 360,000 active | AID 651610, 2012;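 active means mean replicate inhibition score of at least 50 and every replicate individually at or above 50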;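 further: 0% = plate neutral controls and 100% = maraviroc near 300 nM; one replicate is shown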
CSC inhib: cancer stem cell viability inhibitors, primary screen, luminescence. cancer stem cell-like cells viability. inhibition, % at 7.5 µM. 1.1% of 300,000 active. AID 2717, 2010;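 active means mean at 75% or more and at least half the replicates too; tested in HMLE shEcad cells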;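 further: 0% = median of negative and 100% = median of positive control wells; the first replicate is given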
PABP polyA inh: PABP poly(A) RNA binding inhibitors, primary screen, biochemical, fluorescence polarization, uHTS. 1% of 290,000 active. Polyadenylate-binding protein 1 (Homo sapiens), P11940. inhibition, % at 35 µM. AID 2014, 2009;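 active means 50% or more with normal probe brightness, or confirmed in later tests; about a fifth of its hits are not listed in these tables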;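 further: calls also rest on retests at 20 µM and on dose response follow-up; controls were probe without protein and protein plus probe with vehicle; some compounds called inactive have numbers as strong as hits; many hits fall short of the cut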
MT1-MMP act inh: blockers of MT1-MMP proenzyme processing, primary screen, HT1080 RFP-PRO-GFP cells, GFP/RFP fluorescence | 0.061% of 360,000 active | GFP/RFP ratio fluorescence, overnight; percent of plate control window, DMSO zero | GFP/RFP ratio change, % at 20 µM | Matrix metalloproteinase-14 (Homo sapiens), P50281 | AID 651647, 2012;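 active means GFP/RFP ratio change of at least 30% with cell ATP level not reduced by more than half and red fluorescence within 50% of control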; further: strong numbers were not always called active
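system = RFP-PRO-GFP reporter HT1080 cells | dosing = 20 µM single dose, 1% DMSO | timing = overnight cell settling, then overnight compound exposure, 37 °C, 5% CO2 | read-out basis = GFP/RFP fluorescence ratio | controls = DMSO and RFP-L50D-GFP cell wells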
UUG fidelity: modulators of yeast start codon fidelity, primary screen, whole organism, S. cerevisiae, single point, plate reader; AID 602363, 2012; S. cerevisiae UUG-firefly luciferase reporter, luminescence/redox ratio; 0.13% of 350,000 active; activity score, % at 18.7 µM;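 active means replicate mean at a twofold rise or more, about +100% in these data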;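 further: firefly luciferase made from a UUG start codon reports start codon fidelity; reporter light over untreated wells divided by growth signal over untreated wells; some hits fall short of that in this replicate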
eIF4H FP inh: human eIF4H binding inhibitors, primary screen, translation initiation inhibitor project, biochemical, uHTS, fluorescence polarization; inhibition, % at 35 µM; 0.94% of 290,000 active; Eukaryotic translation initiation factor 4H (Homo sapiens), Q15056; eIF4H fluorescence polarization binding assay; AID 2012, 2009;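 active means 50% or more with normal probe brightness, or confirmed in later tests; about a fifth of its hits are not listed in these tables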;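 further: calls also rest on retests at 20 µM and on dose response follow-up; 0% = protein and probe with vehicle and 100% = probe without protein; strong numbers were not always called active; many hits fall short of the cut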
eIF4H FP inh retest: recorded beside eIF4H FP inh, whose call it bears; inhibition, %; compound at 20 µM; confirmation average;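 mean of two retest wells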
PABP polyA inh retest: second read-out of PABP polyA inh, no call of its own (marks repeat the call); inhibition, %; compound at 20 µM; confirmation repeats;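 mean of two retest wells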
MT1-MMP act inh RFP: recorded beside MT1-MMP act inh, whose call it bears; RFP signal change, %; measured here: RFP expression control read;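 0 = vehicle wells; hits needed this value within 50% of zero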
An asterisk follows results filed as active; i = inactive; / = not tested or not shown.

SMILES	Rce1 inhib	HIV Env fusion	CSC inhib	PABP polyA inh	MT1-MMP act inh	MT1-MMP act inh RFP	UUG fidelity	eIF4H FP inh	others
Cc1ccc(SCCC(=O)NCCSCc2ccco2)cc1	i	22	9	7	1	2	/	-6
CC(=O)c1cn(Cc2ccccc2)c(=O)[nH]c1=O	i	9	-3	-1	1	2	/	16
CCSc1nnc(NC(=O)[C@@H](NC(=O)c2cc(OC)cc(OC)c2)C(C)C)s1	i	-9	4	2	4	2	/	3
COc1ccc(NS(=O)(=O)c2cc(NC(=O)CCNC(C)=O)ccc2N2CCCCC2)cc1	/	/	0	/	-5	2	-13	/
COc1ccc(S(=O)(=O)N2CCCC(C(=O)NCCN3CCOCC3)C2)cc1C (stereo unspecified)	i	4	/	10	0	-2	-10	-5
Cc1cc(C)nc(SCc2n[nH]c(=S)n2C)n1	i	/	-14	-10	5	-1	-20	-9
COc1ccc(NC(=O)C2CCCN(S(=O)(=O)c3ccc(-n4cnnn4)cc3)C2)cc1 (stereo unspecified)	i	-8	/	5	-3	-3	-20	-4
C#CCOCCOCCOCCNc1nc(N2CCN(C(=O)C([C@@H](C)O)n3cc([C@@H](N)CCCCN)nn3)CC2)nc(N2CCN(C(=O)[C@H](CCCCN)n3cc(CN)nn3)CC2)n1 (stereo partly specified)	/	/	7	/	2	6	59	/
Cc1cccc(-c2noc(CN(C(=O)C34CC5CC(CC(C5)C3)C4)C(C)C)n2)c1	i	/	5	-2	-5	-5	-10	-10
O=C(Cc1ccccc1)NN=C1CCCC1	/	-8	/	/	3	1	-11	/
c1cncc(-c2noc(-c3ccco3)n2)c1	i	/	3	-6	7	9	-9	0
COc1ccc(OC)c(CN(CCCN2CCOCC2)C(=O)Nc2ccccc2)c1	i	-63	-3	4	5	4	-9	-2
CCCCOC(=O)C1=C(C)Nc2nnnn2C1c1ccccc1Cl (stereo unspecified)	i	-130	-3	0	-3	-7	-21	-2
CNC(=O)N(O)C1N(/N=C/c2ccccc2OC)C(=S)SC1(C)C (stereo unspecified)	i	-3	-6	4	-2	1	0	-1
O=C1N/C(=C\c2ccccc2)C(O)=C1C=NCc1ccccc1	i	-101	19	2	7	3	-11	-11
COC(=O)Oc1ccc(/C=N/NC(=O)CSCc2ccc(Cl)cc2)cc1OC	i	23	19	-7	6	-4	/	5
CCOc1cccc2sc(N(CCCN(C)C)C(=O)c3ccc(S(=O)(=O)N(CC)Cc4ccccc4)cc3)nc12	i	-7	26	-10	-2	-2	8	-5
Fc1ccc(F)c(C2=NNC(=NCC3CCCO3)SC2)c1 (stereo unspecified)	i	-10	2	1	-4	-1	/	-13
CCCCC(CC)C(=O)Nc1ncc([N+](=O)[O-])s1 (stereo unspecified)	i	2	24	10	-18	-31	-1	7
CCOC(=O)Cn1nc(-c2ccc(C)cc2)ccc1=O	i	5	-5	0	3	0	-3	5
CC(=O)Nc1ccc(S(=O)(=O)NC(CSc2ccc(C(=O)O)cc2[N+](=O)[O-])C(=O)O)cc1 (stereo unspecified)	i	8	-13	8	2	3	-16	-9
c1nc2sc3c(c2c2nnnn12)CCCC3	i	/	-20	4	-17	-3	-5	8
Cc1ccc(C2C(=O)N(C3CCCC3)CC(=O)N2C2CCCCC2)cc1 (stereo unspecified)	i	36	34	3	-18	-13	11	2
CC(C)Cc1nnc(NS(=O)(=O)c2ccccc2)s1	/	-9	/	/	-4	4	-19	/
C=CCn1c(=O)c(C(=O)Nc2ccccc2O)c(O)c2ccccc21	/	-12	16	-6	9	5	15	-10

Next part, starting with the last 2 of the part before.
SMILES	Rce1 inhib	HIV Env fusion	CSC inhib	PABP polyA inh	MT1-MMP act inh	MT1-MMP act inh RFP	UUG fidelity	eIF4H FP inh	others
CC(C)Cc1nnc(NS(=O)(=O)c2ccccc2)s1	/	-9	/	/	-4	4	-19	/
C=CCn1c(=O)c(C(=O)Nc2ccccc2O)c(O)c2ccccc21	/	-12	16	-6	9	5	15	-10
CC[n+]1c(/C=C/C=C/N(C(C)=O)c2ccccc2)sc2ccccc21	i	/	30	-12	-68	33	-4	66	eIF4H FP inh retest=29;PABP polyA inh retest=27
O=C(COc1ccccc1[N+](=O)[O-])OCC(=O)N1CCC(Cc2ccccc2)CC1	i	/	6	2	3	5	/	3
Cc1ccc(NC(=O)CN(C)CC(=O)Nc2ccc(F)c(F)c2F)c(Cl)c1	i	7	-5	-16	2	-1	4	-8
O=C(c1ccc(S(=O)(=O)N2CCOCC2)cc1)N1CCN(c2ccccc2)CC1	i	-33	-2	4	0	0	-12	-4
CCn1c(C)c(/C=N/Nc2nc3ccccc3s2)c2ccccc21	i	1	/	5	-3	-2	-5	-9
Cc1ccc(S(=O)(=O)N2CCCCC2)cc1C(=O)Nc1ccc(N2CCOCC2)cc1	i	40	4	4	10	-9	-34	-3
COc1ccc(Br)cc1CN1CCN(C(=O)c2cccc(F)c2)CC1	i	5	6	11	-1	-2	-9	8
CCCn1c(SCC(=O)N2CCCC2)nc2c1c(=O)n(C)c(=O)n2C	i	-3	-7	1	-1	0	-1	-8
O=C(CC1C(=O)NCCN1C(=S)Nc1ccccc1)Nc1ccc(F)cc1 (stereo unspecified)	i	-2	0	10	4	4	/	2
CC1(c2cccc(Br)c2)NC(=O)N(CC(=O)Nc2ccc(F)cc2)C1=O (stereo unspecified)	i	-3	1	1	2	-1	0	-7
CN(C)c1ccnc(Oc2ccccc2)c1C#N	/	-3	/	13	-8	-3	-15	-1
Cc1ccc(S(=O)(=O)N2CCN(C(=O)COC(=O)COc3cccc4c3OC(C)(C)C4)CC2)cc1	i	6	/	/	2	1	/	/
COc1ccccc1/C=N/NC(=O)c1cccc(NC(=O)c2ccccc2Cl)c1	i	-2	-7	6	-2	-4	/	-1
Cc1ccc(Cn2c(C(C)Nc3nc(-c4ccc(Cl)cc4)cs3)nc3cc(C(=O)NCCCO)ccc32)cc1 (stereo unspecified)	i	-10	5	/	5	-3	-5	/
CC(O)(c1ccccc1)c1nc(/C=C/c2ccccc2)cs1 (stereo unspecified)	/	12	/	/	0	-14	-4	/
Cc1ccc(O)c(N/C=C/C(=O)c2ccc(F)cc2)c1	i	-26	54	22	-10	-15	-13	5
CCOC(=O)c1c(S(=O)(=O)N(C)Cc2ccco2)c(C)n(C)c1C	i	4	-11	15	-2	-1	-10	-2
Cc1cc(C(=O)NC2CC(C)(C)Cc3c2cnn3-c2ccc(F)cc2)no1 (stereo unspecified)	/	-4	-5	-7	-4	-3	3	-4
Cn1cc(S(=O)(=O)CC(=O)Nc2ccc3c(c2)OCO3)c2ccccc21	i	0	/	3	20	-4	-17	13
O=C(CN1CCCc2ccccc21)NCc1ccc2c(c1)OCO2	i	13	-6	12	-40	4	-11	6
CCc1ccc(-c2cc(C)no2)cc1S(=O)(=O)NCCCN1CCN(c2ccccc2)CC1	i	49	14	-1	5	-19	-15	10
N#Cc1cnc2ncnn2c1-c1ccccc1	i	3	22	6	0	5	/	-12
O=C(O)CSC1=NC(=Nc2cccc(Cl)c2)C2(CCCCC2)N1c1ccccc1	i	-8	-6	4	3	6	/	-3
COc1ccc(NC(=O)c2cc(S(=O)(=O)N3CCOCC3)cn2C)c(OC)c1	i	-13	-19	8	4	5	-10	1
Cc1ccc(CNc2nc3ccccc3s2)s1	i	/	23	1	10	-2	-48	5

A run of entries from further up, for reference:
SMILES	Rce1 inhib	HIV Env fusion	CSC inhib	PABP polyA inh	MT1-MMP act inh	MT1-MMP act inh RFP	UUG fidelity	eIF4H FP inh	others
O=C(COc1ccccc1[N+](=O)[O-])OCC(=O)N1CCC(Cc2ccccc2)CC1	i	/	6	2	3	5	/	3
Cc1ccc(NC(=O)CN(C)CC(=O)Nc2ccc(F)c(F)c2F)c(Cl)c1	i	7	-5	-16	2	-1	4	-8
O=C(c1ccc(S(=O)(=O)N2CCOCC2)cc1)N1CCN(c2ccccc2)CC1	i	-33	-2	4	0	0	-12	-4
CCn1c(C)c(/C=N/Nc2nc3ccccc3s2)c2ccccc21	i	1	/	5	-3	-2	-5	-9

More records follow:
SMILES	Rce1 inhib	HIV Env fusion	CSC inhib	PABP polyA inh	MT1-MMP act inh	MT1-MMP act inh RFP	UUG fidelity	eIF4H FP inh	others
O=C(NCc1cccnc1)C(=O)NCC1OCCN1S(=O)(=O)c1ccc(Cl)cc1 (stereo unspecified)	i	-6	37	2	3	0	-12	3
COc1ccc(C(CNC(=O)c2ccc(NS(=O)(=O)c3cccc([N+](=O)[O-])c3)cc2)N2CCOCC2)cc1 (stereo unspecified)	i	-5	-2	9	0	3	3	4
Cc1ccccc1Cn1nc(C)c(NC(=O)c2noc3c2CCCC3)c1C	i	-8	-14	1	2	0	4	-6
Cc1ccc(Cn2c(SCC(=O)NCC3CCCO3)nc3c(sc4ccccc43)c2=O)cc1 (stereo unspecified)	i	6	0	-15	2	1	-17	-7
CCn1c(SCC(=O)Nc2ccc3c(c2)OCCO3)nc2c(c1=O)SC(C)C2 (stereo unspecified)	i	/	2	6	3	0	/	-6
CN(C)CCOc1cc(Cl)cc(Cl)c1	i	20	-10	-5	3	4	/	-1
Cc1ccc(CNC(=O)CSc2nccn(-c3ccc(C)c(F)c3)c2=O)cc1	i	-4	-7	/	-2	3	5	/
Cc1ccc(-c2nnc(SCC(=O)NNC(=O)COc3cccc4ccccc34)n2C)cc1	i	22	11	5	/	/	/	-11
O=C(O)COc1ccccc1-c1ccccc1	/	-22	6	4	0	2	-11	2
COc1cccc(N2C(=O)C(CC(=O)Nc3ccccc3)N(C3CCCCC3)C2=O)c1 (stereo unspecified)	i	-23	2	-13	0	-4	-2	-9
CCCCn1c(N)c(N(CC)C(=O)C(c2ccccc2)c2ccccc2)c(=O)[nH]c1=O	i	21	-6	-6	1	5	/	-3
COc1ccc(NC(=O)CC2C(=O)N(c3ccc(F)cc3)C(=S)N2NC(=O)c2ccc(Cl)cc2)cc1 (stereo unspecified)	i	/	7	2	7	-1	-3	1
CCOC(=O)C1CCCN(Cc2cc(=O)oc3cc(C)c(C(C)C)cc23)C1 (stereo unspecified)	i	17	8	-2	-2	-4	/	7
CC(C)(C)OC(=O)C[C@@H]1C/C=C\C[C@H](CC(=O)NCCO)C(=O)N2CCC[C@H]2COC1=O	/	-1	-16	/	2	0	-3	/
Cc1ccccc1Cn1nc(C)c(NC(=O)c2cc3nc(-c4ccco4)cc(C(F)(F)F)n3n2)c1C	/	/	/	0	-3	-11	-12	-8
COCCn1c(SCC(=O)NCc2ccc3c(c2)OCO3)nnc1C(C)C	i	15	-43	12	2	7	3	-8
CC(C)c1ccc(-c2cc(C(=O)N3N=C(C(F)F)CC3(O)C(F)F)c3ccccc3n2)cc1 (stereo unspecified)	i	-229	112*	-6	4	-1	-16	3
O=C(NNc1c(Cl)cccc1Cl)c1cccs1	i	-1	-13	-6	5	3	-5	-13
O=C(CCCn1c(=S)[nH]c2ccccc2c1=O)NC1CCCC1	i	-93	-5	-2	6	-4	-3	3
COc1ccc(NC(=O)c2sc(=O)n(Cc3ccccc3C#N)c2C)cc1OC	/	-5	/	/	-5	-18	-18	/
O=[N+]([O-])c1cccc(C(=Nc2cccc(Cl)c2)NO)c1	i	-180	8	14*	1	-5	11	70*	eIF4H FP inh retest=83*;PABP polyA inh retest=82*
CCC[N+](CC#Cc1ccccc1)(CCC)CC(=O)OCC	i	/	-2	-4	-6	4	/	-8
